# Compound activity as filed in PubChem.
# rRNA inh HTS – inhibitors of bacterial rRNA selective over humanized ribosomes; GFP signal change (wild-type ribosome), % (test concentration not listed); 350,000 tested, 1.6% active; E. coli WT GFP vs humanized-ribosome RFP mutants, fluorescence, 24 h; hits give low values; DMSO median 0, no signal -100;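 active means significant combined selectivity score with lowered wild-type GFP, culture density cut under 30%, mutant RFP and density less affected; inactive means any of these conditions unmet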; further: one replicate is shown; some compounds called inactive have numbers as strong as hits
# E coli growth – E. coli growth inhibition | Escherichia coli growth, OD600, 23 h; hits give low values | OD600 absorbance (concentration not given with the values) | 330,000 tested, 0.21% active | AID 1053175;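 active means OD600 absorbance below the run mean of sample wells minus 3.6 SD, in any replicate, cut at about 0.56 in these data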;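 further: stock transfer was 300 nL into about 60 µL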
# FGF22 binding – binders of recombinant human FGF22 by thermal shift; Q9HCT0; SYPRO orange fluorescence; percent of sucrose octasulfate shift, DMSO zero; calls only at 9.99 µM; 340,000 tested, 1.5% active; AID 651658;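 active means melting point raised past a set limit in the mean and every replicate; three in four hits are not shown here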
# Beta2AR agonist – agonists of human beta-2 adrenergic receptor inducing internalization. response, % (concentration not given with the values). 340,000 tested, 0.43% active. AID 504454. P07550. Am2.2-beta2AR cells, FAP receptor internalization, flow cytometry; reference of the scale not given here;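 active means response above a set limit, near 3 SD of response in nonfluorescent compounds, cut at about 42% in these data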;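 further: stock transfer was 100 nL into about 11 µL; a reference agonist was the positive control; negative values mostly stem from fluorescent compounds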
# Target sequence (P07550 whole entry, looked up): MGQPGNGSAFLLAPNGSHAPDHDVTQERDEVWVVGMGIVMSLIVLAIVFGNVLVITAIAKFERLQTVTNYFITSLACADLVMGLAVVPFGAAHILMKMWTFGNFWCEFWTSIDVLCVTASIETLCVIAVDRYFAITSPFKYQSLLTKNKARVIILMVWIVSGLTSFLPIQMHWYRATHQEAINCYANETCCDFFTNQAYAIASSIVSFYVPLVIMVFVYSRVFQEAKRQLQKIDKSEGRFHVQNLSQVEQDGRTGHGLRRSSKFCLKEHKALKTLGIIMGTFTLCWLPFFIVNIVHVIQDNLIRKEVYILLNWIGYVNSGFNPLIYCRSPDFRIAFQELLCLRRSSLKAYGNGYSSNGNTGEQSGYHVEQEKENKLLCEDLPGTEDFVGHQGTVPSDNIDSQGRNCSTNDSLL
# ALR inh – blocks human ALR sulfhydryl oxidase activity. P55789. purified ALR, DTT oxidation, H2O2 HRP-luminol luminescence. 290,000 tested, 3.8% active. inhibition, % (test concentration not listed);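 active means mean and each replicate at 75% or more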;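 further: stock transfer was 7.5 nL into about 7.5 µL; 0% = neutral wells and 100% = wells with inactivated enzyme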
# Target sequence (P55789 whole entry, looked up): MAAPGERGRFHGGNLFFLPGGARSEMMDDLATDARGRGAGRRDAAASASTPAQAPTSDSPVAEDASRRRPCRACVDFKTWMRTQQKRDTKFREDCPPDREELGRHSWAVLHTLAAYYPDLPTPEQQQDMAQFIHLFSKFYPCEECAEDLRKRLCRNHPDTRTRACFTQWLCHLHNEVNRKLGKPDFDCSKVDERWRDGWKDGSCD
# HNF4A DNA FP – change in binding of human HNF4 alpha to DNA; activity change, % at 10 µM; 360,000 tested, 0.3% active; HNF4a-FITC DNA binding, fluorescence polarization, 1 h; in the data active means activity change above about 30%, passing the limit was not always enough;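 further: controls were the assay level and a saturating level of protein; the project sought stronger binding though the title names inhibitors; some compounds called inactive have numbers as strong as hits; positive values seem to mean higher polarization but the record does not say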
# UCH37 inh – human UCH37 deubiquitinating enzyme inhibition; AID 588478; 330,000 tested, 0.33% active; inhibition, % (concentration not given with the values); purified proteasome/UCH37, Ub-AMC cleavage fluorescence;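 active means mean of two replicates above 20%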;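 further: 0% = compound-free wells with enzyme and 100% = wells lacking proteasome; stock transfer was 100 nL into about 20 µL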
# Target sequence (Q9Y5K5 whole entry, looked up): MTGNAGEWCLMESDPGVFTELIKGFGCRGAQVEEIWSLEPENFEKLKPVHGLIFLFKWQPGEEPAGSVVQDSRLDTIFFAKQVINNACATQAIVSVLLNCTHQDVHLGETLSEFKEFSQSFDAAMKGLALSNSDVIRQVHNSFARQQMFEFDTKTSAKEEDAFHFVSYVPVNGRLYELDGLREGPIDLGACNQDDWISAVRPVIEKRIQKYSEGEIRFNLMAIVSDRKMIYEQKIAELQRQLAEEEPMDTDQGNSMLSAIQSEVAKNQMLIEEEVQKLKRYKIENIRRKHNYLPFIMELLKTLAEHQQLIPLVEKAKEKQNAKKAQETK
#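 system = Proteasome-associated human UCH37 deubiquitinase | amount = 0.15 nM proteasome as dispensed | medium = pH 7.4 Tris-HCl (50 mM) with ovalbumin, ATP-MgCl2, DTT | incubation = 30 min preincubation with enzyme, 25 min cleavage at room temperature | detection = AMC fluorescence 355/460 nm | read-out basis = percent inhibition | controls = no-proteasome and no-compound wells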
# rRNA inh HTS OD600 – further read-out of rRNA inh HTS, marked with its call; OD600 change, %; measured here: OD600 growth;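 optical density of the mix in the first replicate; 0 = DMSO median and -100 = no signal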
# rRNA inh HTS RFP – further read-out of rRNA inh HTS, marked with its call; RFP signal change, %; measured here: RFP humanized mutant strains;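 first replicate; 0 = DMSO median and -100 = no signal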
# Starred values were filed as active, the others as inactive; i = inactive; / = not tested or not shown. Not all compounds are listed (hit frequency here may not be typical).
SMILES,rRNA inh HTS,rRNA inh HTS OD600,rRNA inh HTS RFP,E coli growth,FGF22 binding,Beta2AR agonist,ALR inh,HNF4A DNA FP,UCH37 inh
O=C(CCN1C(=O)c2ccccc2C1=O)Nc1cccc(S(=O)(=O)N2CCCCC2)c1,/,/,/,0.73,/,2,-1,3.0,3.5
COc1ccc(S(=O)(=O)Nc2c(C)n(C)n(-c3ccccc3)c2=O)cc1C(=O)O,16,13,-0.4,0.66,i,2,9,-0.6,1.1
COc1ccc(NC(=O)CN2CCCC(C)C2)c([N+](=O)[O-])c1 (configuration not stated),/,/,/,0.71,/,-1,/,-3.6,0.9
O=Cc1ccc(OCC(=O)Nc2ccccc2C(F)(F)F)cc1,22,11,3.9,0.68,i,0,-4,-3.5,0.2
COc1ccc(C(=O)NCC(=O)OCC(=O)Nc2cc(OC)ccc2OC)cc1,/,/,/,0.69,/,64*,-5,0.3,2.7
Cc1ccc(C)c(N2N=C(C(=O)OCc3nnc(-c4ccccc4)o3)CCC2=O)c1,3,3,-0.6,0.67,i,9,5,4.6,2.2
O=S(=O)(Nc1ccc(NS(=O)(=O)c2ccccc2)c(Cl)c1)c1ccccc1,-38,-68,-4.4,0.67,i,2,/,-1.3,4.0
O=C(c1cnc2ccccc2n1)N1CCN(c2ccc(C(F)(F)F)cn2)CC1,16,-7,-0.5,0.72,i,-1,-13,3.7,5.2
COc1cccc(CN(C)CC(=O)Nc2ccccc2C(=O)NC2CC2)c1,/,/,/,0.7,i,3,-2,-3.3,-0.2
CCOC(=O)c1cc(-c2ccccc2)sc1NC(=O)CSc1nnc(N)s1,9,18,2.5,0.73,i,-7,2,0.6,2.4
O=C(Cc1coc2cc(O)ccc12)NNC(=O)c1cccs1,10,6,3.4,0.69,/,-4,99*,1.0,-1.6
C/C(=N\NC(=O)C1(C)NC(C)(C)Cc2ccccc21)c1ccccc1 (configuration not stated),3,1,0.1,/,i,-4,-1,-4.7,/
N#CCCSc1nc(N2CCOCC2)c2c(c1C#N)CCCC2,/,/,/,0.71,/,6,-24,4.1,3.1
Cc1ccc([C@H]2C[C@H](O)[C@@H](n3cc(-c4ccc(F)cc4)nn3)CN2C(=O)C2CCCCC2)cc1,-2,2,-1.3,/,i,/,/,-1.6,/
O=C(O)CCc1ccc(-c2ccc(Br)cc2)n1Cc1ccco1,/,/,/,0.72,/,7,28,1.7,-12
COc1ccc(C(=O)N2CCCC(CNC(=O)c3ccccc3Cl)C2)o1 (configuration not stated),6,8,-3.3,0.72,i,0,-2,-0.5,0.1
CCOC(=O)C(CCCCP(=O)(c1ccccc1)c1ccccc1)(NC(C)=O)C(=O)OCC,-6,-4,-1.2,0.63,i,-4,-4,2.4,2.3
O=C(c1ccc(COc2c(F)c(F)cc(F)c2F)o1)N1CCN(c2ccccc2)CC1,/,/,/,0.71,/,4,25,2.0,2.6
CCOC(=O)c1ccccc1NC(=O)COC(=O)CCNS(=O)(=O)c1cccs1,-8,-13,-1.0,0.62,i,9,/,-6.3,1.3
O=C(COC(=O)c1ccc[nH]c1=O)NCC12CC3CC(CC(C3)C1)C2,-6,-7,-0.9,0.7,i,5,/,-1.0,-1.8
COc1cccc(Cn2c(Oc3ccccc3)nc3c2c(=O)n(C)c(=O)n3C)c1,/,/,/,0.75,/,-1,-1,0.8,-0.4
Cc1ccc(CN2CCN(/N=C/c3cccnc3)CC2)c(C)c1,6,-2,1.3,/,i,5,0,-2.9,/
CCc1ccc(C2CC(c3ccccc3)n3ncnc3N2)cc1 (configuration not stated),-26,-37,-0.6,0.66,i,-6,/,1.2,0.7
OCC[C@@H]1C[C@@H](O)[C@H](O)[C@]2(CCc3ccccc3O2)O1,9,6,4.2,/,i,0,1,0.1,2.0
COc1ccccc1-n1nnnc1SCC(=O)NC1CC1,9,13,3.3,0.71,/,-2,-18,0.6,3.7
O=C(CSc1nc2nn(-c3ccccc3)c(=O)c-2c2n1CCCCC2)NCCCc1ccccc1,-15,-14,9.9,0.7,i,3,34,0.6,0.5
CSCC[C@H](NC(=O)[C@@H]1Cc2ccccc2CN1)C(=O)Nc1cccc(C)c1,-2,-11,-1.2,0.65,i,7,-9,3.5,3.7
COc1ccccc1CNC(=O)c1ccc(CS(=O)(=O)c2ccccc2)o1,4,-6,3.8,0.74,i,1,20,0.6,1.7
O=C(NCCOc1ccccc1F)c1cc([N+](=O)[O-])ccc1N1CCOCC1,6,-11,0.8,0.65,i,-10,7,-2.8,7.2
CC1CCCC(NC(=O)CN2C(=O)COc3ccccc32)C1C (configuration not stated),12,4,1.2,0.69,i,7,0,-2.4,-0.1
Cc1ccc(CSc2nc3c(cc2C#N)CCC3)cc1,/,/,/,0.74,/,-12,-7,0.9,-5.2
Nc1n[nH]c(-c2ccc([N+](=O)[O-])cc2[N+](=O)[O-])n1,5,8,-5.9,0.68,i,2,-34,-0.8,2.1
C[C@]12c3[nH]c4ccc(Cl)cc4c3CCN1C(=O)[C@@H](CC(=O)NCCCn1ccnc1)C[C@@H]2C(=O)N1CCOCC1,-1,-1,-1.5,0.69,i,-4,/,-3.6,3.9
Cn1c(CNC(=O)c2ccco2)nnc1SCC(=O)N1c2ccccc2Sc2ccccc21,/,/,/,0.8,/,-2,-4,-1.2,1.3
Cn1cnnc1SCc1ccc(C(=O)n2ncc(C#N)c2N)cc1,/,/,/,0.72,/,3,-6,-0.4,3.8
COCCn1c(SCC(=O)NCc2ccc3c(c2)OCO3)nc2ccccc2c1=O,15,22,-1.4,0.69,i,22,-3,-1.1,4.7
OCCN1CN=C(Nc2nc3ccccc3s2)NC1,/,/,/,0.71,/,3,-5,1.9,0.9
CCCCN(C(=O)c1cc(S(=O)(=O)N2CCOCC2)ccc1Cl)c1c(N)n(CC(C)C)c(=O)[nH]c1=O,7,8,-0.6,0.72,i,1,0,1.4,5.5
O=C(COC(=O)c1ccco1)NCCNC(=O)COC(=O)c1ccco1,0,5,-0.7,0.67,i,-5,4,-1.2,1.7
Cc1c(Br)c(C(F)(F)F)nn1CC(=O)NCCCn1ccnc1,6,-3,-8.3,0.7,/,-7,-3,-0.6,3.8
CC(C)(C)NC(=O)CC1C[C@H](C(=O)N2CCOCC2)[C@@]2(CCC3CCCC3)c3[nH]c4ccccc4c3CCN2C1=O (some centres not stated),4,-14,1.0,0.64,i,11,-2,-1.8,1.3
O=C(CNC(=O)c1ccc(S(=O)(=O)N2CCCC2)cc1)N/N=C/c1ccc(Cl)cc1Cl,2,13,-0.3,/,i,-5,0,0.8,/
CC(=O)Nc1ccc(S(=O)(=O)N(C)CC(=O)OCC(=O)c2ccc3c(c2)NC(=O)CO3)cc1,/,/,/,0.71,i,-1,-3,-4.2,1.9
Cc1ccc(C(=O)NCC(=O)OCC(=O)NC2CCCCCCC2)cc1,-5,-1,5.3,0.67,i,7,-2,1.8,6.0
Cc1ccc(N(CCCCN2C(=O)c3ccccc3C2=O)C(=O)c2ccc(Cl)s2)cc1,/,/,/,0.71,/,-5,-9,-1.5,0.3
Cc1cc(C)c(C(N)=O)c(SCC(=O)c2ccc(Cl)cc2)n1,-6,-4,-4.5,0.65,i,2,18,-0.1,1.4
CCOc1ccccc1N(CC(=O)NCCSCc1ccco1)S(=O)(=O)c1ccccc1,-12,-18,2.5,0.69,i,7,4,-3.4,-3.7
COc1ccc(NC(=O)CCNC(=O)Cn2ccc3ccccc3c2=O)c(OC)c1,/,/,/,0.68,/,3,-7,-1.3,1.4
Cc1cccc(C(=O)NC(=S)Nc2ccccc2C(F)(F)F)c1,/,/,/,0.69,/,-3,-8,-4.0,1.0
C[C@@H]1CC=C[C@H]2[C@H]1C(=O)N(Cc1ccccc1)[C@H]2c1ccoc1,8,6,2.4,/,i,14,/,2.5,5.0
CCN(CC)C(=O)c1[nH]cnc1C(=O)N[C@@H](Cc1ccccc1)C(=O)OCc1ccccc1,-7,-13,-1.8,/,i,4,73,0.3,0.6
O=C(N/N=C/c1cccnc1)c1ccc([N+](=O)[O-])cc1Cl,/,/,/,/,/,2,-39,-0.9,/
COc1cccc(NC(=O)Cn2c(-c3cncs3)nc3ccccc32)c1,/,/,/,0.69,/,5,0,0.9,1.5
O=C(COC(=O)CNC(=O)c1ccccc1)NCCCc1ccccc1,5,7,-1.9,0.68,i,1,0,1.0,0.1
CC(C)=CC(=O)O[C@H]1[C@@H]2[C@H](C)C(=O)O[C@@H]2C[C@@H](C)[C@@H]2[C@@H](O)CC(=O)[C@]21C,10,18,1.8,/,i,4,-3,5.2,0.4
COc1ccccc1C(=O)Nc1cc2cc(Br)ccc2oc1=O,9,14,3.7,0.71,/,-5,/,0.5,-19
CC(C)Cc1[nH]c(=O)c(C#N)c2c1COC(C)(C)C2,/,/,/,0.69,/,3,-7,-1.1,-6.9
O=C(NN=C1CCCC1)c1ccc(Cl)cc1,14,17,-0.5,0.64,i,1,6,-0.1,7.0
CN(CC(=O)Nc1cc(Cl)ccc1Cl)C1CCS(=O)(=O)C1 (configuration not stated),11,11,0.4,0.65,i,-3,/,-1.3,2.9
CCCCCCCCCCCCN1C/C(=C\C(=O)OCC)c2ccccc2S1(=O)=O,3,8,-6.5,/,i,14,-1,1.1,4.8

# The list goes on:
SMILES,rRNA inh HTS,rRNA inh HTS OD600,rRNA inh HTS RFP,E coli growth,FGF22 binding,Beta2AR agonist,ALR inh,HNF4A DNA FP,UCH37 inh
O=C(Nc1ccc(Cl)c(S(=O)(=O)N2CCCCC2)c1)c1ccncc1,-14,-25,0.5,0.69,i,3,/,3.7,1.3
COc1cc(-c2noc(C3CCCN(C(=O)c4ccccc4)C3)n2)cc(OC)c1OC (configuration not stated),-16,-16,-1.2,0.67,i,10,-31,1.5,4.8
O=S1(=O)CCC(NCC2CCCO2)C1 (configuration not stated),/,/,/,0.66,/,8,/,-0.5,-0.2
O=C(Nc1ccccc1)c1ccccc1NC(=O)C1CCCCC1,/,/,/,0.74,/,9,-2,-0.8,-1.6
O=C(C1CCN(C2CC(=O)N(Cc3ccccc3)C2=O)CC1)N1CCCCCC1 (configuration not stated),/,/,/,0.71,/,-2,/,1.2,2.2
COc1ccc(C2C(C(=O)c3ccco3)=C(O)C(=O)N2c2nnc(C)s2)cc1OC (configuration not stated),-4,-5,2.4,0.69,i,3,0,-10,7.6
O=C(CNC(=O)c1cc(Cl)cc([N+](=O)[O-])c1)OCC(=O)N1CCCCC1,-5,-3,-2.1,0.69,i,1,/,0.2,4.0
COc1ccc(NC(=O)c2ccc(-c3nn(C)c(=O)c4ccccc34)cc2)cc1,-21,-38,-7.8,0.71,i,8,-2,1.0,1.4
Cc1ccc(O)c(N=Nc2nccs2)c1,-10,18,1.0,0.62,i,-1,-7,0.2,9.4
O=C(NC1CCCC1)c1cc2c(=O)n3ccccc3nc2s1,-16,-13,2.2,0.7,i,-11,6,1.7,i

# Of the compounds above, 4 contain a cyano group:
SMILES,rRNA inh HTS,rRNA inh HTS OD600,rRNA inh HTS RFP,E coli growth,FGF22 binding,Beta2AR agonist,ALR inh,HNF4A DNA FP,UCH37 inh
N#CCCSc1nc(N2CCOCC2)c2c(c1C#N)CCCC2,/,/,/,0.71,/,6,-24,4.1,3.1
Cc1ccc(CSc2nc3c(cc2C#N)CCC3)cc1,/,/,/,0.74,/,-12,-7,0.9,-5.2
Cn1cnnc1SCc1ccc(C(=O)n2ncc(C#N)c2N)cc1,/,/,/,0.72,/,3,-6,-0.4,3.8
CC(C)Cc1[nH]c(=O)c(C#N)c2c1COC(C)(C)C2,/,/,/,0.69,/,3,-7,-1.1,-6.9
